High-throughput results (PubChem)
ID4 binder: binders of human ID4 protein, primary screen, biochemical, small molecule microarray, single point. DNA-binding protein inhibitor ID-4 (Homo sapiens), P47928. Flag-ID4 binding, fluorescence F/B. calls only. 31,000 tested, 1.2% active;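 active = spot signal over background at p below 0.07 in all four prints; compounds were printed on slides so no solution concentration is given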;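 note: a binder raises fluorescence above local background on the spot; about 2 pmol printed per array spot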
Target sequence (P47928 whole entry, looked up): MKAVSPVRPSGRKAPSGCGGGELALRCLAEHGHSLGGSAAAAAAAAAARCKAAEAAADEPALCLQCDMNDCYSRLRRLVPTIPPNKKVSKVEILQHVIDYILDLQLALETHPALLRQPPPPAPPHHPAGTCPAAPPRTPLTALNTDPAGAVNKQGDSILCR
Calls only; i = inactive. Not all compounds are listed, so the mix of outcomes need not match the whole.

1) C[C@@H]1CN([C@H](C)CO)S(=O)(=O)c2ccc(Br)cc2O[C@H]1CN(C)Cc1cncnc1
  ID4 binder: i
2) COc1ccc(NC(=O)N(C)C[C@H]2Oc3ncc(C4=CCCC4)cc3C(=O)N([C@H](C)CO)C[C@H]2C)cc1
  ID4 binder: i
3) CN(C)C(=O)C[C@@H]1C[C@H]2c3cc(NC(=O)C4CCC4)ccc3O[C@H]2[C@@H](CO)O1
  ID4 binder: i
4) Cc1cc(NC(=O)CN(c2c(C)cccc2C)S(C)(=O)=O)ccc1Br
  ID4 binder: i
5) CCOc1ccc(C(Nc2cccc(C)n2)c2ccc3ccc(C)nc3c2O)cc1 (stereo not given)
  ID4 binder: i
6) COc1ccccc1NC(=O)CSc1nc2ccc([N+](=O)[O-])cc2[nH]1
  ID4 binder: i
7) O=C(Cn1nc(-c2cccc([N+](=O)[O-])c2)c2ccccc2c1=O)NCC1CCCO1 (stereo not given)
  ID4 binder: i
8) COc1ccccc1N1CCN(CCn2c(=O)[nH]c3c([nH]c4ccccc43)c2=O)CC1
  ID4 binder: i
9) CC(C)CC#Cc1ccc2c(c1)O[C@@H](CN(C)Cc1ccccc1F)[C@@H](C)CN([C@H](C)CO)S2(=O)=O
  ID4 binder: i
10) C[C@H](CO)N1C[C@H](C)[C@H](CN(C)CC2CCOCC2)Oc2cc(C3=CCCC3)ccc2S1(=O)=O
  ID4 binder: i
11) CC(C)CC#Cc1cnc2c(c1)C(=O)N([C@@H](C)CO)C[C@H](C)[C@@H](CN(C)Cc1cccc(F)c1)O2
  ID4 binder: i
12) Clc1ccc2nc(-c3cccnc3)c(Nc3ccccc3)n2c1
  ID4 binder: i
13) COc1ccc(C#Cc2ccc3c(c2)[C@]2(C(=O)N3)[C@H](C(N)=O)[C@H]3C(=O)O[C@H](c4ccccc4)[C@H](c4ccccc4)N3[C@@H]2c2ccc(O)cc2)cc1
  ID4 binder: i
14) COc1ccccc1C1CC(c2ccc(C)cc2)=NN1C(=O)CCC(=O)O (stereo not given)
  ID4 binder: i
15) CCn1c(SCC(=O)Nc2ccc(Br)cc2)nnc1-c1ccccc1
  ID4 binder: i
16) C/C=C/c1cnc2c(c1)C(=O)N([C@@H](C)CO)C[C@H](C)[C@H](CN(C)Cc1ccc3c(c1)OCO3)O2
  ID4 binder: i
17) CCCNC(=O)N(C)C[C@H]1Oc2cc(C#CCN(C)C)ccc2S(=O)(=O)N([C@@H](C)CO)C[C@H]1C
  ID4 binder: i
18) Cc1cccc(CN(C)C[C@@H]2OCc3cnnn3CCCC(=O)N([C@H](C)CO)C[C@@H]2C)c1
  ID4 binder: i
19) COc1ccccc1-c1cnc2c(c1)C(=O)N([C@H](C)CO)C[C@@H](C)[C@H](CN(C)CC1CCOCC1)O2
  ID4 binder: i
20) Cc1cc(N(CC(=O)Nc2ccc(F)cc2F)S(C)(=O)=O)ccc1Br
  ID4 binder: i
21) COC(=O)[C@H]1COC(c2ccc(OCCCO)cc2)=N1
  ID4 binder: i
22) COCCn1c(-c2ccccc2)nc(=S)c2c1CC(C)(C)OC2
  ID4 binder: i
23) C[C@@H]1CN([C@@H](C)CO)C(=O)c2cc(Br)cnc2O[C@@H]1CN(C)Cc1ccncc1
  ID4 binder: i
24) C=Cc1cncc2c(=O)n3c(cc12)-c1[nH]c2ccccc2c1CC3
  ID4 binder: i
25) CN1C(=O)c2cccc3c(S(=O)(=O)Nc4ccc(O)c(C(=O)O)c4)ccc1c23
  ID4 binder: i

26) COc1ccc(OC)c2c(C)cc(=O)[nH]c12
  ID4 binder: i
27) O=S(=O)(NCc1ccc(Cl)cc1)c1cnc[nH]1
  ID4 binder: i
28) CCn1c(SCC(=O)Nc2ccccc2F)nnc1-c1ccc(Br)cc1
  ID4 binder: i
29) COCC#Cc1cnc2c(c1)C(=O)N([C@H](C)CO)C[C@H](C)[C@@H](CN(C)Cc1ccccc1)O2
  ID4 binder: i
30) C[C@@H]1CN([C@@H](C)CO)C(=O)c2cc(C#Cc3cccnc3)cnc2O[C@@H]1CN(C)S(C)(=O)=O
  ID4 binder: i
31) C[C@@H]1CN([C@H](C)CO)S(=O)(=O)c2ccc(Br)cc2O[C@H]1CN(C)CC1CCCC1
  ID4 binder: i
32) CN1CCN(C(=O)c2ccccc2NC(=O)CCN2C(=O)c3ccccc3C2=O)CC1
  ID4 binder: i
33) COc1ccc(OC)c(S(=O)(=O)N2CCC(C(=O)Nc3ccc4c(c3)OCCO4)CC2)c1
  ID4 binder: i
34) O=C(O)CCS(=O)(=O)c1cccc2cccnc12
  ID4 binder: i
35) CCc1cc2c(SCC(=O)O)ncnc2s1
  ID4 binder: i
36) C[C@@H]1CN([C@@H](C)CO)C(=O)c2cc(-c3ccccc3)cnc2O[C@H]1CN(C)Cc1ccccn1
  ID4 binder: i
37) C[C@H](CO)N1C[C@H](C)[C@@H](CN(C)Cc2ccccn2)Oc2ncc(C#Cc3ccccc3)cc2C1=O
  ID4 binder: i
38) C[C@H]1CN([C@@H](C)CO)S(=O)(=O)c2ccc(C3=CCCC3)cc2O[C@@H]1CN(C)CC1CCOCC1
  ID4 binder: i
39) O=S(=O)(CCSc1nc2ccccc2o1)c1nc2ccccc2s1
  ID4 binder: i
40) Cc1ccc(C(=O)O)cc1S(=O)(=O)N1CCC(C(=O)O)CC1
  ID4 binder: i
41) CC(=O)c1c(C)nn(CC(O)COc2ccc3ccccc3c2)c1C (stereo not given)
  ID4 binder: i
42) C[C@H](O)C#Cc1cnc2c(c1)C(=O)N([C@H](C)CO)C[C@H](C)[C@@H](CN(C)CC1CCCC1)O2
  ID4 binder: i
43) CC(=O)c1ccc(NC(=O)CSc2nc(-c3ccccc3)c(C#N)c(=O)[nH]2)cc1
  ID4 binder: i
44) CCOc1ccc(C)cc1S(=O)(=O)NCC1CCCO1 (stereo not given)
  ID4 binder: i
45) Cc1cc(C(=O)NCCCN2CCCC2=O)no1
  ID4 binder: i
46) Cc1ccc(S(=O)(=O)N2C(=O)CCC2C(=O)Nc2cc(C(F)(F)F)ccc2Cl)cc1 (stereo not given)
  ID4 binder: i
47) Cc1cc(C)cc(OCC(=O)Nc2cc(-c3nc4ccccc4s3)ccc2C)c1
  ID4 binder: i
48) COc1ccc(OC)c(N(CC(=O)Nc2cccc(C(F)(F)F)c2)S(C)(=O)=O)c1
  ID4 binder: i
49) COc1cccc(NC(=O)C(C)N(c2ccc(Cl)cc2)S(C)(=O)=O)c1 (stereo not given)
  ID4 binder: i
50) CCCC#Cc1cnc2c(c1)C(=O)N([C@H](C)CO)C[C@@H](C)[C@@H](CN(C)Cc1ccccc1)O2
  ID4 binder: i

51) C[C@@H]1CN([C@@H](C)CO)C(=O)c2ccccc2-c2ccccc2CO[C@@H]1CN(C)C(=O)Nc1ccnc(N2CCOCC2)c1
  ID4 binder: i
52) Cc1cc(C)c2c(CC(=O)NCc3ccco3)coc2c1
  ID4 binder: i
53) CC(C)[C@@H](C)NC(=O)N(C)C[C@@H]1OCc2ccccc2-c2ccccc2C(=O)N([C@H](C)CO)C[C@@H]1C
  ID4 binder: i
54) CNC(=O)CN(c1ccccc1C)S(=O)(=O)c1ccc(Cl)cc1
  ID4 binder: i
55) CCOc1ccccc1NC(=O)CN1C(=O)c2ccc([N+](=O)[O-])cc2C1=O
  ID4 binder: i
56) C[C@@H]1CN([C@H](C)CO)C(=O)c2ccccc2-c2ccccc2CO[C@@H]1CN(C)S(=O)(=O)CC(F)(F)F
  ID4 binder: i
57) C[C@H](CO)N1C[C@H](C)[C@@H](CN(C)C(=O)C2CCC2)Oc2ncc(-c3ccccc3F)cc2C1=O
  ID4 binder: i
58) COc1ccc(Cl)cc1N1CCN(CCNC(=O)Nc2ccccc2C)CC1
  ID4 binder: i
59) CC(C)C#Cc1cnc2c(c1)C(=O)N([C@H](C)CO)C[C@@H](C)[C@H](CN(C)C(=O)C1CCC1)O2
  ID4 binder: i
60) CO/N=C1\CN(c2nc3c(cc2F)c(=O)c(C(=O)O)cn3C2CC2)CC1CN (stereo not given)
  ID4 binder: i
61) C[C@H]1CN([C@@H](C)CO)C(=O)c2cc(C#CC3CCCCC3)cnc2O[C@H]1CN(C)S(=O)(=O)c1cccc(F)c1
  ID4 binder: i
62) O=C(N[C@H]1C=C[C@@H](CC(=O)N2CCCCC2)O[C@H]1CO)c1cccc(F)c1
  ID4 binder: i
63) Cc1ccc(CC(CC(=O)O)C(=O)Nc2ccccc2I)cc1 (stereo not given)
  ID4 binder: i
64) COc1ccc([Si](C)(C)[C@@H]2[C@@H](CCO)O[C@]3(C(=O)N(Cc4ccccc4)c4ccc(N5C(=O)c6cccc7cccc5c67)cc43)[C@H]2C)cc1
  ID4 binder: i
65) Cc1ccc(N(C(C)C(=O)Nc2cccc([N+](=O)[O-])c2)S(C)(=O)=O)cc1C (stereo not given)
  ID4 binder: i
66) C[C@H](CO)N1C[C@H](C)[C@H](CN(C)C(=O)c2cccc(F)c2)Oc2cc(-c3ccncc3)ccc2S1(=O)=O
  ID4 binder: i
67) CC(C)[C@@H](C)NC(=O)N(C)C[C@H]1OCc2ccccc2-c2ccccc2C(=O)N([C@@H](C)CO)C[C@@H]1C
  ID4 binder: i
68) CCCNC(=O)N(C)C[C@@H]1Oc2cc(C#Cc3ccccn3)ccc2S(=O)(=O)N([C@@H](C)CO)C[C@@H]1C
  ID4 binder: i
69) Clc1ccccc1CNc1nc2ccccc2n1CCN1CCOCC1
  ID4 binder: i
70) CCc1nc(SCC(=O)Nc2ccc(Br)cc2)n[nH]1
  ID4 binder: i
71) Cc1ccc(OCCSc2n[nH]c3nc4ccccc4n23)cc1
  ID4 binder: i
72) CCCN(C)C[C@H]1Oc2cc(C#Cc3ccc(F)cc3)ccc2S(=O)(=O)N([C@H](C)CO)C[C@@H]1C
  ID4 binder: i
73) COc1ccccc1-c1ccc([C@H]2[C@@H](CO)N(C(=O)NC3CCCCC3)[C@H]2C#N)cc1
  ID4 binder: i
74) C[C@@H](NC(=O)C[C@@H]1CC[C@H](NC(=O)C2CC2)[C@H](CO)O1)c1ccccc1
  ID4 binder: i
75) COc1ccc(CNC(=O)N(C)C[C@@H]2OCc3ccccc3-c3c(n(C)c4ccccc34)C(=O)N([C@@H](C)CO)C[C@H]2C)cc1
  ID4 binder: i

76) Cc1ccc(-c2cnc3c(c2)C(=O)N([C@@H](C)CO)C[C@@H](C)[C@@H](CN(C)Cc2ccccc2F)O3)cc1
  ID4 binder: i
77) CCn1c(SCC(=O)Nc2ccc(Cl)cc2Cl)nnc1-c1cc(Br)ccc1O
  ID4 binder: i
78) CCC(=O)N[C@@H]1C=C[C@@H](CC(=O)NCC2CCCCC2)O[C@@H]1CO
  ID4 binder: i
79) NC(=O)c1c(NC(=O)c2ccc(COc3cc(Cl)ccc3Cl)o2)sc2c1CCCC2
  ID4 binder: i
80) CCOc1ccc(NC(=O)Cn2cnc3scc(-c4ccc5ccccc5c4)c3c2=O)cc1
  ID4 binder: i
81) C[C@H]1CN([C@@H](C)CO)C(=O)c2cc(-c3ccccc3)cnc2O[C@H]1CN(C)C(=O)C1CCCCC1
  ID4 binder: i
82) CC(C)NC(=O)N(C)C[C@@H]1Oc2ncc(C#CC3CC3)cc2C(=O)N([C@@H](C)CO)C[C@@H]1C
  ID4 binder: i
83) NC(=O)/C(=C/c1ccc2c(c1)OCO2)NC(=O)c1ccc(Br)cc1
  ID4 binder: i
84) COc1cccc(NC(=O)N(C)C[C@@H]2Oc3cc(C#Cc4ccc(F)cc4)ccc3S(=O)(=O)N([C@@H](C)CO)C[C@H]2C)c1
  ID4 binder: i
85) CCC(=O)N(C)C[C@H]1Oc2ncc(/C=C/c3ccccc3)cc2C(=O)N([C@H](C)CO)C[C@@H]1C
  ID4 binder: i
86) N#C[C@H]1[C@@H](c2ccc(C3=CCCC3)cc2)[C@@H](CO)N1C(=O)NC1CCCC1
  ID4 binder: i
87) CS(=O)(=O)N(CC(=O)Nc1cccc2ccccc12)c1ccc(F)c(Cl)c1
  ID4 binder: i
88) Cc1ccccc1-c1cnc2c(c1)C(=O)N([C@H](C)CO)C[C@H](C)[C@@H](CN(C)Cc1ccncc1)O2
  ID4 binder: i
89) COc1cc(OC)c(NC(=O)CN(C)S(=O)(=O)c2ccc(Br)cc2)cc1Cl
  ID4 binder: i
90) CC(C)COC(=O)N(C)C[C@H]1OCc2ccccc2-c2ccccc2C(=O)N([C@@H](C)CO)C[C@H]1C
  ID4 binder: i
91) C[C@@H]1CN([C@@H](C)CO)S(=O)(=O)c2ccc(Br)cc2O[C@@H]1CN(C)CC1CC1
  ID4 binder: i
92) CN1CCN(C(=O)C[C@@H]2CC[C@@H](NC(=O)c3ccc4c(c3)OCO4)[C@H](CO)O2)CC1
  ID4 binder: i
93) O=C(N[C@H]1CC[C@H](CC(=O)N2CCOCC2)O[C@H]1CO)c1ccccn1
  ID4 binder: i
94) COC(=O)c1c(NC(=S)NCCn2cc(Br)cn2)sc2c1CCC2
  ID4 binder: i
95) Cc1ccc(Cl)cc1NC(=O)C(C)n1nc(C)c([N+](=O)[O-])c1C (stereo not given)
  ID4 binder: i
96) CSc1cccc(NC(=O)CSc2ncn(-c3ccccc3)n2)c1
  ID4 binder: i
97) Cc1nnc(SCC(=O)Nc2cccc(C(F)(F)F)c2)s1
  ID4 binder: i
98) CN(C)C(=O)C[C@H]1C=C[C@H](NC(=O)C2CCC2)[C@H](CO)O1
  ID4 binder: i
99) Cc1cc(N2CC(C)CC(C)C2)nc2ccc(NC(=O)CCC(=O)Nc3ccc(F)cc3Cl)cc12 (stereo not given)
  ID4 binder: i
100) C[C@H](NC(=O)C[C@H]1C=C[C@@H](NC(=O)C2CCC2)[C@H](CO)O1)c1ccccc1
  ID4 binder: i

101) CCOc1ccc(NC(=O)CSc2nccc(C)n2)cc1
  ID4 binder: i
102) CCCC#Cc1cnc2c(c1)C(=O)N([C@H](C)CO)C[C@H](C)[C@@H](CN(C)Cc1ccc(F)cc1)O2
  ID4 binder: i
103) CN1CCN(C(=O)CCc2nc(-c3ccc(Cl)cc3)no2)CC1
  ID4 binder: i
104) C/C=C/c1ccc2c(c1)O[C@@H](CN(C)Cc1ccccc1F)[C@@H](C)CN([C@@H](C)CO)S2(=O)=O
  ID4 binder: i
105) COc1ccccc1N(CC(=O)Nc1ccc(F)c(F)c1)S(C)(=O)=O
  ID4 binder: i
106) C[C@@H]1CN([C@H](C)CO)S(=O)(=O)c2ccc(C#Cc3ccccc3F)cc2O[C@@H]1CN(C)C(=O)Cc1cccnc1
  ID4 binder: i
